miR-21 reporter: raises the signal of a miR-21 reporter; 340,000 tested, under 10 active; Potency, µM (doses to about 38.3 µM), for the others: at the top dose reporter change, positive = more light; HeLa miR-21 FLuc reporter, luciferase, 48 h; active = well fitted rising curve with a large enough effect; inconclusive = small, poorly fitted or top-dose-only effect; inactive = no such curve, though single readings can be large or run the other way;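 also: % of control where 0% means no effect; miR-21 action dims this reporter so a rising signal means less miR-21 action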
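Compounds were titrated across several concentrations (up to approximately 40 uM) and incubated 48 hours with HeLa miR-21-FLuc reporter cells (miR-21 target sequence downstream of FLuc, endogenous miR-21). Readout was firefly luciferase luminescence after lytic detection reagent.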
Rango complex inh: Rango-importin beta binding inhibition. AID 540263. hit rate 0.031% among 340,000. Potency, µM (doses to about 92.2 µM), for the others: at the highest dose inhibition of complex formation. Rango CFP/YFP FRET sensor + importin beta, 45 min; active = rising FRET ratio curve, often small or poorly fitted; inconclusive = mostly compound fluorescence or quenching in the first reads; inactive = flat curves in all reads;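 also: potency is read from the fitted curve at half-maximal effect; 0% = DMSO wells and 100% = buffer wells lacking importin beta; nearly all actives have a fitted effect of over 15% in size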
Target sequence (Q14974 whole entry, looked up): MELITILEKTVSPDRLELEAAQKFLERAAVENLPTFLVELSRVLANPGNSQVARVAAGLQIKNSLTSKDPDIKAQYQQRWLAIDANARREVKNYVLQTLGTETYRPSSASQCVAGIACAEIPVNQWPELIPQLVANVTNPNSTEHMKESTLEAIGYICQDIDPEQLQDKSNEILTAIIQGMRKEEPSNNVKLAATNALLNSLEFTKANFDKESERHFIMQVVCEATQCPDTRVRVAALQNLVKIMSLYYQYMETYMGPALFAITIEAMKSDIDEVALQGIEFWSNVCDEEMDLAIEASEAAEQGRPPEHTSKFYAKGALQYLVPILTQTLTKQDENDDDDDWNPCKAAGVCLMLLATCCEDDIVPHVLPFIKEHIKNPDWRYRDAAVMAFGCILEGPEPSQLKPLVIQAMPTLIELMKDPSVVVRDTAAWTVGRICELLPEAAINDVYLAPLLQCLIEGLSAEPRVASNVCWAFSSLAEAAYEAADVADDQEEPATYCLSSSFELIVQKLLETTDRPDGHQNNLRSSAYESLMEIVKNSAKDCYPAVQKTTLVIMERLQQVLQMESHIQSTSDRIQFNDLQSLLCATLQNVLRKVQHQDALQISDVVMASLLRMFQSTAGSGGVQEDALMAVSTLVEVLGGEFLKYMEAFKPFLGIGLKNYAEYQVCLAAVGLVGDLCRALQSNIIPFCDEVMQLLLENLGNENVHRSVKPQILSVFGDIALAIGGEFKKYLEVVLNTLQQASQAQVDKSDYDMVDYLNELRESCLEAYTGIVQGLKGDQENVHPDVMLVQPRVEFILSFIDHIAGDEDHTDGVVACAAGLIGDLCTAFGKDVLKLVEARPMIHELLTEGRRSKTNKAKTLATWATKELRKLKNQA
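FRET biosensor (snurportin 1 IBB flanked by EYFP and cerulean), 50 nM, with compound 5 min, then 0.125 microM importin beta in PBS, 1 mM DTT, 0.02% Tween-20, 0.1% BSA. CFP/YFP ratio read after 45 min at room temperature; pre-read flags interference.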
Rango release inh: inhibition of RanGTP-driven Rango-importin beta dissociation; Potency, µM (top dose mostly 46.1 µM), for the others: at the highest dose activity change, negative = inhibition; hit rate 0.071% among 340,000; AID 540253; Biochemical FRET Rango-importin beta, RanGTP-induced dissociation; O95149+P62826; active means falling FRET ratio curve, often poorly fitted, with flat reads before Ran was added; inconclusive means other falling curves, or compound fluorescence or quenching; inactive means flat or rising ratio curve;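 also: potency is read from the fitted curve at half-maximal effect; % of control where 0% means no effect; nearly all actives have a fitted effect of over 45% in size; -100% = wells without RanGTP and RCC1; the record marks most hits as doubtful in a second field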
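Two FRET readings bracket the reaction: one 5 min after compound meets Rango–importin beta, another 45 min after RanGTP-RCC1 (0.6 uM Ran, 0.2 uM RCC1, 2 mM GTP) is added. Only the second defines inhibition.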
GLA inh pH 4.5: inhibitors of human alpha-galactosidase A at pH 4.5; P06280; purified enzyme, 4-MU-alpha-Gal fluorescence, pH 4.5; activity change, negative = inhibition, % at 105 µM; 230,000 tested, under 10 active; inconclusive = small, poorly fitted or top-dose-only inhibition, or a rising curve; inactive = flat fitted curve, though single readings scatter; no compound was filed as active;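 also: 0% = full activity with enzyme and -100% = basal without enzyme; dose as in the result columns while the protocol names 77 µM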
Starred values were filed as active, the others as inactive; ? = inconclusive; · = not tested or not shown; & = joins results of further samples; [ ] = remark or other dose. A portion of the library (hit frequency here may not be typical).

No.	miR-21 reporter	Rango complex inh	Rango release inh	GLA inh pH 4.5	SMILES
1	·	2.9%	1%	·	Cc1noc(NS(=O)(=O)c2ccc(NC(=O)c3ccccc3NS(=O)(=O)c3ccc(F)c(F)c3)cc2)c1C
2	17%	-0.4%	-4%	·	CCCCCC(O)(c1ccccc1)C(CN1CCOCC1)c1ccccc1 (stereo unspecified)
3	0%	-1.3%	10%	14	O=C(CN1CCOCCOCCOCC1)Nc1ccccc1
4	12%	-0.2%	1%	2	CC1CN(S(=O)(=O)c2cccc(-c3cn4ccccc4n3)c2)CC(C)O1 (stereo unspecified)
5	-31%	-2.0%	1%	-22	CCCn1nnc(NC(=O)c2ccc(F)cc2)n1
6	-1%	-3.2%	1%	-6	CC(Oc1ccc(Cl)cc1)C(=O)Nc1sccc1C(N)=O (stereo unspecified)
7	-2%	0.4%	12%	·	CCCC(=O)Nc1ccc2nc(C)n(Cc3ccccc3Cl)c(=O)c2c1
8	3%	-1.0%	5%	·	COCCN(CC1CCCN(C2Cc3ccccc3C2)C1)C(=O)CCSC (stereo unspecified)
9	-17%	0.3%	23%	2	Cc1ccc(CNC(=O)CSCc2cccc(F)c2)cc1
10	0%	-2.8%	19%	0	COc1ccc(C2CC(=O)C(C=NCCCN3CCOCC3)=C(O)C2)cc1 (stereo unspecified)
11	·	-2.7%	-9%	·	Cc1ccccc1NC(=O)Cc1nc(COC(=O)c2cccc(O)c2)cs1
12	·	-0.9%	-2%	·	Cc1ccc(C(=O)Nc2ccc(Nc3ccccc3)cc2)cc1Br
13	5%	-1.6%	-5%	1	COc1ccc(NC(=S)NNS(=O)(=O)c2ccc3ccccc3c2)c(OC)c1
14	-1%	8.4%	10%	-3	CC(=O)Nc1ccc(S(=O)(=O)/N=C2/NC(=O)/C(=C\c3ccco3)S2)cc1
15	0%	1.0%	-1%	8	Cc1cc([N+](=O)[O-])nn1CC(=O)NNC(=S)Nc1ccc(F)cc1
16	-8%	2.5%	-6%	-10	CCOC(=O)/C(=C\C=C\c1ccccc1)NC(=O)c1ccccc1
17	6%	3.7%	0%	-23	Cc1ccc(O)c(C2=NNC(O)(C(F)(F)F)C2)c1 (stereo unspecified)
18	-4%	1.0%	-10%	-8	COc1cccc(-c2cc(=O)c3cc(NC(C)=O)ccc3[nH]2)c1
19	-1%	1.4%	-9%	4	CC1(C(=O)O)CCC(C(=O)Nc2ccccc2O)C1(C)C (stereo unspecified)
20	·	-1.6%	16%	·	CCOc1ccc(NC(=O)CN(C)C(=O)c2cc(C3CC3)nn2-c2ccccc2)cc1OCC
21	-7%	-2.5%	-1%	-15	Cc1ccc(C(=O)Nc2ccc3c(c2)OCO3)cc1S(=O)(=O)N1CCCCC1
22	-3%	-2.6%	-7%	·	CC/C(=C1/C(=O)CC(C)(C)C(C(=O)OC)C1=O)N1CCCC1 (stereo unspecified)
23	26%	1.9%	-1%	·	O=C(NCCN1CCN(c2ccc([N+](=O)[O-])cc2)CC1)NCc1ccccc1
24	-2%	·	·	7	COCCCNC(=O)C1CCC(CNS(=O)(=O)c2ccc(C)cc2)CC1 (stereo unspecified)
25	-1%	1.1%	2%	-1	Cn1c(N)c(C(=O)COC(=O)c2cc(S(=O)(=O)N3CCCCC3)ccc2Cl)c(=O)n(C)c1=O
26	-3%	-4.3%	3%	2	Cc1ccc(CNC(=O)C(=O)NCCC2=CCCCC2)cc1
27	·	-3.6%	34%	·	Cc1cccc(C(=O)NCC(=O)N(C)Cc2nc3ccccc3c(=O)[nH]2)c1
28	-7%	?	3%	2	Cn1cccc1Cc1nnc(SCC(=O)N2CCOCC2)n1CCc1ccccc1
29	-2%	-4.8%	-9%	·	O=C(CNS(=O)(=O)c1ccc(Br)cc1)NCc1ccncc1
30	-33%	0.5%	3%	-1	Cc1ccccc1-c1nnc(-c2ccccc2C)o1
31	-37%	-2.3%	0%	·	CCn1c(-c2ccccn2)nc2cc(S(=O)(=O)N(C)C)ccc21
32	-2%	0.3%	-2%	·	CCOCCCNC(=O)c1ccc(NC(=O)C2CCCO2)cc1 (stereo unspecified)
33	1%	0.1%	19%	-1	CN(C)S(=O)(=O)c1cc(NC(=O)COC(=O)Cc2ccc(Br)cc2)ccc1Cl
34	15%	9.3%	12%	·	Cc1ccc(S(=O)(=O)N2CCN(C(=O)c3ccc(N4CCCCC4)c([N+](=O)[O-])c3)CC2)cc1
35	-9%	0.6%	-7%	10	COC(=O)c1ccc(Nc2cc(C)nc3ncnn23)cc1
36	-2%	-0.6%	-13%	-4	CCOc1ccc(/C=C2\SC(=S)N(C)C2=O)cc1OC
37	-3%	-2.8%	-3%	-3	CCOc1ccc(OCC)c(S(=O)(=O)N2CCCCC2C)c1 (stereo unspecified)
38	-2%	0.5%	-17%	4	C[C@H](NS(=O)(=O)c1ccccc1F)C(=O)OCC(=O)N1CCc2ccccc21
39	-46%	-1.0%	7%	5	CCOC(=O)c1c(NC(=O)CSc2cccc[n+]2[O-])sc(C(=O)Nc2ccccc2)c1C
40	-4%	3.1%	16%	·	COC(=O)c1ccc(NC(=O)c2cc[n+]([O-])cc2)cc1
41	-10%	·	·	0	Cc1ccc2c(c1)[nH]c1c(N3CCN(Cc4ccc5c(c4)OCO5)CC3)ncnc12
42	-5%	-0.1%	-1%	5	CCN(CC)CCCNC(=S)N(Cc1cccs1)Cc1cc2cc3c(cc2[nH]c1=O)OCCO3
43	-5%	-2.0%	-8%	1	CCCCNC(=O)NC1(C(F)(F)F)Oc2ccccc2O1
44	-14%	0.2%	-19%	-5	CCOC(=O)c1ccc(-n2ccnc2)c(NC(=O)c2cccc(Br)c2)c1
45	1%	7.2%	22%	·	O=C(C[C@H]1C(=O)N(C2CCCCC2)C[C@@H]1Cc1ccccc1)Nc1ccccc1
46	0%	-0.3%	0%	3	Cc1cccc2cc(COC(=O)C3CCCCC3)c(=O)[nH]c12
47	-8%	2.3%	7%	·	O=[N+]([O-])c1cccc(C2(O)COc3ccccc3O2)c1 (stereo unspecified)
48	-16%	-1.2%	-9%	·	CCOC(=O)c1ccc(NC(=S)NC(=O)C2CCCC2)cc1
49	-12%	1.0%	9%	4	Cc1ccc(-n2ncc(-c3nn[nH]n3)c2N)cc1
50	?	-2.5%	-8%	5	Cc1cccc(Cn2c(CN3CCN(Cc4ccccc4)CC3)nc3c2c(=O)[nH]c(=O)n3C)c1

(further entries)
No.	miR-21 reporter	Rango complex inh	Rango release inh	GLA inh pH 4.5	SMILES
51	0%	0.9%	-4%	0	COc1cc(NC(=O)C2CCCCC2)c(OC)cc1NC(=O)c1ccco1
52	-2%	-0.4%	1%	1	CCOc1ccccc1OCCNC1CCCC1
53	-4%	-1.0%	6%	3	COc1cccc(C2(O)CCN(C(=O)c3cccs3)CC2)c1
54	4%	-4.9%	2%	-2	Cc1ccc(C(O)P(=O)(OC2CCCCC2)OC2CCCCC2)cc1 (stereo unspecified)
55	-1%	2.3%	8%	·	CCOc1ccc(/C=N\NC(=O)CC(=O)NCCc2ccccc2)cc1
56	0%	-0.8%	-17%	-3	c1ccc(-c2nnc(OCCN3CCOCC3)c3ccccc23)cc1
57	·	-4.6%	1%	·	CSCCC(NC(=O)c1ccccc1)C(=O)OCC(=O)NCc1ccco1 (stereo unspecified)
58	-3%	4.8%	-11%	?	Cc1nnc(SCc2cc([N+](=O)[O-])cc3c2OCOC3)n(N)c1=O
59	-34%	-1.3%	13%	-2	O=C(Nn1cnnc1)c1cc2c(s1)CCCCC2
60	13%	0.3%	0%	10	COc1ccc(OCC(=O)Nc2ccc(N3CCOCC3)cc2)c([N+](=O)[O-])c1
61	-1%	-0.9%	?	·	COc1ccc(-c2noc3c2-c2nc(-c4ccccc4F)sc2CC3)cc1
62	·	-4.0%	0%	·	Cc1ccc2nc(SCC(=O)N3CC(C)OC(C)C3)nc(=O)n2c1 (stereo unspecified)
63	4%	1.4%	23%	-12	Oc1ccc(-c2nnc(Nc3cccc(O)c3)c3ccccc23)cc1
64	1%	5.5%	-14%	2[21.1 µM]	S=C1NCCNC(=S)NCCOCCOCCOCCN1
65	-7%	-1.6%	14%	1	O=C(NNC(=O)C1CCCO1)c1ccc(Br)cc1 (stereo unspecified)
66	-4%	0.6%	-9%	4	O=C(COC(=O)CNC(=O)C1CCCCC1)Nc1ccc2c(c1)OCCO2
67	2%&-6%	-1.9%	-15%	-9	Cc1c(C(=O)N(Cc2ccc(N(C)C)cc2)C2CCS(=O)(=O)C2)oc2ccccc12 (stereo unspecified)
68	-3%	?	1%	9	CCN(CC)S(=O)(=O)c1ccc(-c2nnc(SCC(=O)Nc3ccc(OC)c(OC)c3)o2)cc1
69	-6%	0.8%	-4%	-3	O=C(CN1C(=O)/C(=C/c2cccc(Br)c2)SC1=S)Nc1cccnc1
70	·	-3.3%	-9%	-3	CC(=O)c1c(O)cc(O)cc1O
71	1%	0.1%	5%	2	COC(=O)c1ccc(C(=O)OC)c(NC(=O)COC(=O)C23CC4CC(CC(O)(C4)C2)C3)c1
72	·	0.8%	0%	·	COc1ccccc1NCCC(=O)OCC(=O)Nc1ccccc1F
73	-2%	0.0%	-3%	6	CC(NC(=O)c1ccc(N)cc1)c1ccccc1 (stereo unspecified)
74	-22%	-4.3%	-1%	13	O=C(N/N=C/c1c(Cl)cccc1Cl)c1ccccc1F
75	-51%	-0.3%	4%	4	CC(C)(C)c1ccc(C(=O)Nc2ccc(C=C(C#N)C#N)cc2)cc1
76	·	0.8%	30%	·	COc1cccc(CN(C)C(=O)CN2C(=O)NC(c3ccccc3)(c3ccccc3)C2=O)c1
77	1%	-3.8%	7%	·	CCc1ccc(NC(=O)CNC(=O)[C@@H]2Cc3ccccc3CN2C(=O)OC(C)(C)C)cc1
78	18%	1.2%	7%	·	COc1ccc(N(CC(=O)Nc2cc(Cl)ccc2C)S(=O)(=O)c2c(C)n[nH]c2C)cc1
79	-13%	1.3%	-12%	·	O=Cc1c(NCCc2ccc(F)cc2)c2ccccc2[nH]c1=O
80	-42%	0.3%	1%	-17	Cc1ccc(/C=N\NC(=O)c2csnn2)cc1
81	-2%	-3.6%	16%	·	NC(=O)CC(NC(=O)c1ccccc1)c1ccc(NCc2ccccn2)c([N+](=O)[O-])c1 (stereo unspecified)
82	·	0.4%	-5%	·	O=C(Nc1cccc(S(=O)(=O)N2CCOCC2)c1)c1ccc(Cl)nc1
